RVFV N-RNA inh: blocks Rift Valley Fever Virus nucleoprotein binding to RNA | P21700 | RVFV N-RNA binding, fluorescence polarization; active compounds read low | % bound, % (concentration not given with the values) | 20,000 tested, 0.1% active | AID 651828;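 active = between 0 and 58% in either replicate with normal brightness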;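 also: 100 nL library stock added to about 12 µL; 100% = protein and probe without compound and 0% = probe alone; numbers are from one replicate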
Target sequence (P21700 whole entry, looked up): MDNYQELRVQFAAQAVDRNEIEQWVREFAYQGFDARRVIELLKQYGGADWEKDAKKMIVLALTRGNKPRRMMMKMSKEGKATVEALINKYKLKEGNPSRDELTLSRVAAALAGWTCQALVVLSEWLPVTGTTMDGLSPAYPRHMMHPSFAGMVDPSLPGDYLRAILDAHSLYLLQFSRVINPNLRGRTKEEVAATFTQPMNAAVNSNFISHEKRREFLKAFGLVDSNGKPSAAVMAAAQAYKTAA
Active calls of the source: *; & = joins results of further samples. Not all compounds are listed; count on the stated rates, not on these rows.

SMILES | RVFV N-RNA inh
O=c1[nH]c(CSc2ccccc2)nc2ccccc12 | 89
Cc1cc(C)n2c(SCC(=O)Nc3ccccc3)nnc2n1 | 90
CCC(=O)Nc1ccc(Cl)c(C(F)(F)F)c1 | 93
CN1CCC(c2ccc(Cl)s2)=N1 | 96
CC(C)(C)c1ccc(C(=O)NC(=S)NCc2ccco2)cc1 | 96
O=C(N/N=C/c1ccco1)C1CC1(c1ccccc1)c1ccccc1 (centres undefined) | 94
CN(C)/C=C/c1c(C#N)c(=O)ncn1Cc1ccccc1 | 96
CN(C)CCc1c[nH]c2ccc(Cn3cncn3)cc12 | 97
CSCc1nnc(NC(=O)c2ccc(S(=O)(=O)N(CC(C)C)CC(C)C)cc2)o1 | 96
COc1cc(C#N)ccc1OCC(=O)Nc1ccc(F)cc1 | 97

Ten entries from above, as tab-separated lines:
SMILES	RVFV N-RNA inh
CN(C)CCc1c[nH]c2ccc(Cn3cncn3)cc12	97
CN(C)/C=C/c1c(C#N)c(=O)ncn1Cc1ccccc1	96
COc1cc(C#N)ccc1OCC(=O)Nc1ccc(F)cc1	97
Cc1cc(C)n2c(SCC(=O)Nc3ccccc3)nnc2n1	90
CC(C)(C)c1ccc(C(=O)NC(=S)NCc2ccco2)cc1	96
O=C(N/N=C/c1ccco1)C1CC1(c1ccccc1)c1ccccc1 (centres undefined)	94
CN1CCC(c2ccc(Cl)s2)=N1	96
CCC(=O)Nc1ccc(Cl)c(C(F)(F)F)c1	93
CSCc1nnc(NC(=O)c2ccc(S(=O)(=O)N(CC(C)C)CC(C)C)cc2)o1	96
O=c1[nH]c(CSc2ccccc2)nc2ccccc12	89

Remaining list, next part:
SMILES | RVFV N-RNA inh
CN(C)c1ccc(/C=C(/C#N)c2ccc(F)cc2)cc1 | 94
O=P(O)(/C=C/c1ccccc1)/C=C/c1ccccc1 | 95
CCN1C(=O)c2cccc3c(S(=O)(=O)NCc4ccco4)ccc1c23 | 84
Cc1noc(C)c1C(=O)Nc1ccc(S(=O)(=O)N2CCCc3ccccc32)cc1 | 91
CN(C)C(=O)Nc1cccc(OC(=O)N(C)C)c1 | 94
Cc1oc(/N=C/c2ccccc2)c(C#N)c1C | 96
O=C1CSCC(=O)N1c1cc(C(F)(F)F)cc(C(F)(F)F)c1 | 100
COc1ccc(CN(C)C(=O)COc2ccccc2)cc1 | 105
COCCn1c(C23CC4CC(CC(C4)C2)C3)n[nH]c1=S | 97
COc1cc(OC)cc(C(=O)Nc2ccc(OCC(=O)O)cc2)c1 | 98
Cc1cc(Oc2ccccc2)nc(OCC#N)n1 | 91
OC(CNCc1ccco1)COc1ccc(OCC(O)CNCc2ccco2)cc1 (centres undefined) | 98
COc1ccccc1NC(=O)CCC1COc2ccccc2O1 (centres undefined) | 95
O=C(O)CNC(=O)C(CS)Cc1ccccc1 (centres undefined) | 94
O=C(c1ccc(CS(=O)(=O)c2ccc(C(F)(F)F)cn2)o1)N1CCOCC1 | 91
CO[C@H]1O[C@@H]2O[C@@]3(C)CC[C@H]4[C@H](C)CC[C@@H]([C@H]1C)[C@@]24OO3 | 99
CCn1c(O)c(C=Nc2cccc(Cl)c2)c(=O)[nH]c1=S | 94
Cc1ccc(C2CC(=O)C(C=NCCN3CCNCC3)=C(O)C2)cc1 (centres undefined) | 107
COc1ccc(CN2C(=O)CC(C(=O)O)SC2=Nc2ccccc2)cc1 (centres undefined) | 94
Cc1ccc(NC(=O)Cc2coc3ccc4ccccc4c23)nc1 | 99
O=C(O)/C=C/C(=O)Nc1ccccc1C(=O)O | 97
O=C1Nc2ccccc2C1C1(O)C(=O)Nc2ccc(F)cc21 (centres undefined) | 91
c1ccc(-n2nnnc2SSc2nnnn2-c2ccccc2)cc1 | 100
CN1CCC(N(C)C(=S)NCCc2ccccc2)CC1 | 97
Cc1ccc(/C=C(\NC(=O)c2ccccc2)C(=O)NCC2CCCO2)o1 (centres undefined) | 101
Clc1ccc(CO/N=C(\Cn2ccnc2)c2ccc(Cl)cc2Cl)c(Cl)c1 | 93
CN1c2ccsc2C(=O)/C(=C/Nc2cccnc2)S1(=O)=O | 88
Cc1cc(NC=C(C#N)C#N)no1 | 91
Cn1cc(/C=C(\C#N)C(=O)OC2CCCCC2)c2ccccc21 | 96
CN1CCC(N(C)C2CCN(Cc3ccccc3)CC2)CC1 | 92
CC(C)NC[C@H](O)c1ccc(O)c(O)c1 | 96&102
CC1CCCCN1C(=O)CN1C(=O)c2ccccc2C1=O (centres undefined) | 111
Nc1cc(=O)nc(SCc2ccccc2)n1Cc1ccco1 | 90
N#Cc1cc(C#N)c(SCCN2CCOCC2)nc1N | 91
O=c1c(Oc2ccccc2)c(C(F)(F)F)oc2c3c(ccc12)OCO3 | 91
CC1CCOC2(CCC(C(C)(C)C)CC2)O1 (centres undefined) | 113
CCOc1ccc2c(c1)s/c(=N\C(=S)NC(=O)CN1C(=O)CCC1=O)n2C | 96
CN1c2ccccc2C(=O)/C(=N\Nc2ccccc2Cl)S1(=O)=O | 97
Cc1ccccc1NS(=O)(=O)c1ccc(-n2cnnn2)cc1 | 99
Cc1ccc(S(=O)(=O)C(CNC(=O)c2c(F)cccc2F)c2ccco2)cc1 (centres undefined) | 95
O=C1NC(=O)NC(=C/C=C/c2ccc(-c3ccc(Cl)cc3Cl)o2)N1 | 101
O=C(Nc1c(C(=O)N2CCOCC2)cnn1-c1ccccc1)c1ccco1 | 95
Cc1ccc2cc(C(F)(F)F)ccc2n1 | 94
Cc1oc2c(F)c(F)c(F)c(F)c2c1C(=O)Oc1ccc(Br)cc1 | 98
COc1ccccc1N1CCN(C(=O)c2ccccc2C(F)(F)F)CC1 | 97
O=C1N=c2ccccc2=C1c1sc(=O)[nH]c1O | 97
N/C(=N\C(=O)N1CCOCC1)c1ccccc1OC(F)(F)F | 100
COCC(=O)Nc1cccc2ccccc12 | 92
C=CCn1c(Cc2csc(N)n2)nnc1SCC(=O)Nc1ccc(S(N)(=O)=O)cc1 | 100
Cc1onc(-c2ccccc2)c1-c1csc(-c2ccc(-c3csnn3)cc2)n1 | 93

New compounds follow.
SMILES | RVFV N-RNA inh
O=C(Nc1ccccc1C(=O)NCc1ccco1)c1ccc(Cl)cc1 | 98
C=C1C[C@H]2[C@@H]3C=C(C)C4=CC(=O)CC[C@]4(C)[C@H]3CC[C@]2(C)[C@@]1(OC(C)=O)C(C)=O | 92
COc1ccccc1C(=O)Nc1ccccc1C(=O)N1CCCCC1 | 100
C[C@]12CC[C@@H]3c4ccc(OS(=O)(=O)O)cc4CC[C@H]3[C@@H]1CCC2=O | 92
CCOc1cc(C#N)cc(I)c1OCC(=O)OC | 92
CCc1nnc(NC(=O)c2ccc(S(=O)(=O)N(C)C)cc2)o1 | 94
CC(C)(C)OC(=O)NN1C(=O)c2ccccc2C1=O | 96
CCCNC(=O)c1cc(Cl)c(NC(C)=O)cc1OC | 94
Cc1ccc(C(=O)Nc2c[nH]c(=O)[nH]c2=O)cc1 | 94
C/C(=N\OC(=O)c1ccccc1)c1csc(-c2snnc2C)n1 | 94
COc1ccc(CC(=O)NCc2nnc(SCCOc3ccccc3)n2C)cc1 | 85
Oc1cc(Cl)ccc1Oc1ccc(Cl)cc1Cl | 98
CC(C)=N/N=C1/NC(=O)C(CC(=O)Nc2ccc(C(=O)O)cc2)S1 (centres undefined) | 92
CC(C)CC(C(=O)O)N1C(=O)/C(=C\c2cccn2C)SC1=S (centres undefined) | 128
CCNS(=O)(=O)c1ccc(SC)cc1 | 90
O=C1c2ccccc2-c2c1c1ccccc1c(=O)n2Cc1ccc2c(c1)OCO2 | 94
OCC1CCCC1O (centres undefined) | 86
COc1ccc(CN(Cc2ccc(OC)cc2)S(=O)(=O)c2c(C)noc2C)cc1 | 88
CCCc1cc2c(=O)c(-c3ccc4c(c3)OCO4)c(CCC)oc2cc1O | 89
O=S(=O)(Cc1ccc(Cl)cc1)c1ccc(C(F)(F)F)cn1 | 90

Some of the entries so far, in markdown.
| canonical_smiles | RVFV N-RNA inh |
| --- | --- |
| O=P(O)(/C=C/c1ccccc1)/C=C/c1ccccc1 | 95 |
| CCN1C(=O)c2cccc3c(S(=O)(=O)NCc4ccco4)ccc1c23 | 84 |
| Cc1noc(C)c1C(=O)Nc1ccc(S(=O)(=O)N2CCCc3ccccc32)cc1 | 91 |
| CN(C)C(=O)Nc1cccc(OC(=O)N(C)C)c1 | 94 |
| Cc1oc(/N=C/c2ccccc2)c(C#N)c1C | 96 |

Further compounds follow:
SMILES | RVFV N-RNA inh
CC1=CC(=C2C(=O)c3ccccc3C2=O)C=C(C)N1CC(C)C | 93
Cc1onc(-c2c(Cl)cccc2Cl)c1NC(=O)NC(C)C | 96
CCS(=O)(=O)NCCc1csc2nc(-c3ccccc3)nn12 | 98
CCCn1ncc(OC)c(Cl)c1=O | 96
COc1ccc(NC(=O)C(Cc2c[nH]c3ccccc23)NC(C)=O)cc1OC (centres undefined) | 107
O=C1CSC2(CCCC2)N1 | 90
C=CCc1cc(OC)ccc1OCCCSc1ncccn1 | 94
O=C(Nc1ccc2oc(-c3ccccc3)nc2c1)c1ccc(Br)cc1 | 88
COc1cc2c(C)nc3onc(-c4ccccc4)c3c2cc1OC | 105
COc1cc(CC(=O)O)ccc1O | 91
COc1ccc(CC(=O)c2cc(OC)c(OC)cc2CC(=O)O)cc1OC | 93
COC(=O)c1csc(S(=O)(=O)N=S(C)(=O)c2ccccc2)c1OC (centres undefined) | 98
O=C(c1ccc(F)cc1)c1cccnc1 | 97
NC(=O)/C(=C\c1ccco1)NC(=O)c1ccc(Br)cc1 | 94
O=C(CSc1ccc(Cl)cc1)Nc1ccccc1 | 88
CC(C(=O)Nc1cccc(F)c1)C1Sc2ccccc2NC1=O (centres undefined) | 91
Cn1cc(NC(=O)N2CCCCC2CCO)c2ccccc21 (centres undefined) | 95
CCCCNC(=S)Nc1ccc(OC)cc1 | 103
O=S(=O)(c1cccc(S(=O)(=O)N2CCOCC2)c1)N1CCOCC1 | 79
O=C1CCCN2C(=N1)SC(=S)N2CN1CC2CC(C1)c1cccc(=O)n1C2 (centres undefined) | 95
COc1cc(NC(=O)COc2ccc(Cl)cc2)c(C(=O)O)cc1OC | 98
COC(=O)C(=Cc1ccc(-c2ccsc2C(=O)OC)o1)C(=O)OC | 93
CC(C)(C)C(=O)Nc1ccc(Cc2ccncc2)cc1 | 93
C[C@H]1O[C@H](O[C@H]2[C@H](O)[C@@H](O)[C@@H](O[C@H]3[C@H](O)[C@@H](O)C(O)O[C@@H]3CO)O[C@@H]2CO)[C@H](O)[C@@H](O)[C@@H]1N[C@H]1C=C(CO)[C@@H](O)[C@H](O)[C@H]1O (some centres undefined) | 94
FC(F)(F)c1cccc(N2CCN(C3CCCCCC3)CC2)c1 | 95
O=C(CSc1ccc(-c2ccccc2)nn1)NCC1CCCO1 (centres undefined) | 91
S=C(NCCN1CCCCC1)NCC1CCCO1 (centres undefined) | 88
O=C(Nc1cc(Cl)cc2c1[nH]c1cnccc12)c1cccnc1 | 100
Cc1noc(C)c1C(=O)NCCCc1ccccc1 | 97
OC1(C#CCN2CCOCC2)CCCCC1 | 95
Cc1cccc(NC(=O)c2cc3ccc(O)cc3oc2=O)c1 | 88
Cc1ccc(-c2cc(C(=O)N3CCC4(CC3)OCCO4)c3ccccc3n2)o1 | 95
COC(C(=O)Nc1ccc2c(c1)OCO2)c1ccccc1 (centres undefined) | 92
Cc1ccc2cc3c(=O)n(C)c(=O)n(C)c3nc2c1 | 96
O=C(CCN1CCN(C(c2ccccc2)c2ccccc2)CC1)N/N=C/c1ccc(O)cc1O | 92
O=C(CSc1nc2c(c(=O)n1-c1ccccc1)SCC2)N1CCCC1 | 96
COc1ccccc1NC(=O)Nc1ccccc1 | 86
CCOC(=O)c1cnn(-c2ccccc2)c1NC(=O)c1ccco1 | 100
Cc1ccc(C=C(C#N)C#N)c(C)c1 | 97
O=c1ccc2c(OCCCCc3ccccc3)c3ccoc3cc2o1 | 95
CCOC(=O)C1=C(N)Oc2cc(C)n(C)c(=O)c2C12C(=O)N(Cc1ccccc1)c1ccccc12 (centres undefined) | 92
COc1cc(/C=N/NC(N)=S)ccc1OCC(=O)N1CCOCC1 | 113
Cc1cccc(C)c1N(C)C(=O)c1cnccc1C(F)(F)F | 101
Cc1cc(=S)cc(-c2ccccc2)n1CCN1CCOCC1 | 88
Cn1c(=O)n(-c2cccc(Cl)c2)c(=O)n1C | 94
NNC(=O)c1c(-c2ccccc2)c(-c2ccccc2)nn2nnnc12 | 95
COc1cc(C(=O)NS(=O)(=O)c2ccccc2C)ccc1Cc1cn(C)c2ccc(NC(=O)OC3CCCC3)cc12 | 92&91
Nc1ccncc1 | 93
CCOC(=O)c1ccc(N=Cc2ccc(O)c(OC)c2)cc1 | 90
N#C/C(C(=O)N1CCCCC1)=C1/Nc2ccccc2S1 | 90

More entries:
SMILES | RVFV N-RNA inh
COc1ccc(NCC(=O)Nc2ccc(F)cc2)cc1 | 82
S=c1[nH]c2c(Cl)cc(Cl)cc2o1 | 97
Cc1ccc(-n2nc3c4nonc4ccc3[n+]2[O-])cc1 | 101
CCOC(=O)C1=C(C)NC(C)=C(C(=O)OC)C1c1cccc([N+](=O)[O-])c1 (centres undefined) | 92&100&98
O=C(Nc1ccc2c(c1)CCC2)C1CCCO1 (centres undefined) | 97
CC(C)(C)c1cc(O)c(O)c(Br)c1 | 92
Cc1cc(I)c[nH]c1=O | 97
CC(C)CC(=O)Nc1sc2c(c1C#N)CCCCC2 | 100
N#CC1=C(N)C(C#N)(C#N)C2(C(=O)Nc3ccccc32)C2CCCC=C12 (centres undefined) | 79
c1ccc2c(c1)Nc1ccccc1S2 | 97
COc1ccc(/C=C2\SC(=S)N(CCCCCC(=O)N3CCN(C)CC3)C2=O)cc1 | 99
CCCCNC(=O)c1cnc2n(c1=O)CCS2 | 91
C=CCN1C(=O)/C(=C/c2ccco2)C(=O)NC1=S | 92
COc1oc(-c2ccccc2)nc1C(F)(F)F | 96
Cc1nn(Cc2ccc(F)cc2)c(C)c1NC(=O)c1cnn2c1NC(c1ccco1)CC2C(F)(F)F (centres undefined) | 98
CC(C)CCn1c(CO)cnc1S(=O)(=O)C(C)C | 87
CCCCSc1ncn[nH]1 | 93
CCc1ccc(/C=C2/SC(=S)NC2=O)cc1 | 91
O=C(O)COCC(=O)Nc1ccccc1SCc1noc(-c2cccs2)n1 | 97
Cc1cc(C(=O)N2CCc3ccccc32)no1 | 92
N#C/C(=C\C=C\c1ccco1)c1nc(-c2ccccc2)cs1 | 96
